# Screening data as filed in PubChem.
# hNpr1 antagonist = Natriuretic polypeptide receptor (hNpr1) antagonism - Primary qHTS; Potency, µM (highest dose often 46.3 µM), without a hit: at the top dose activity change, negative = inhibition, hits mostly inhibitors; AID 1347048, 2019; HEK293 hNpr1 GloSensor cGMP, ANP-stimulated luminescence; actives 1.6% (n = 76,000); active = well fitted inhibition curve with a large enough effect; inconclusive = small, poorly fitted or top-dose-only effect; inactive = no such curve, though single readings can be large or run the other way;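 also: nearly all actives have a fitted effect of over 60% in size; nearly all hits also lower the signal before the agonist is added; a reference antagonist and vehicle were the controls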
#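 HEK293 cells stably expressing human Npr1 and cGMP GloSensor pGS-40F, loaded 2 h with 2% GloSensor reagent, given compound 30 min at room temperature. Luminescence read before and 20 min after 0.1 nM hNppA.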
# * marks the source's active call; other numbers are inactive results; ? = inconclusive. % is scaled to controls: 0 for no effect and ±100 for the full control effect; potency is read from the fitted curve at half-maximal effect. These rows are one share of the data; the hit share may differ from the screen's.
Cc1cccc(N(C)C(=O)Cn2nc3n(c2=O)CCCC3)c1
  hNpr1 antagonist: 0%
O=C(NCCC1CCN(C(=O)Nc2ccc(F)cc2F)CC1)C1CCCC1
  hNpr1 antagonist: 6%
CS(=O)(=O)N1CCC(OC2CCN(C(=O)Nc3ccc(F)cc3F)CC2)CC1
  hNpr1 antagonist: 7%
CNC(=O)CCC[C@@H]1[C@H]2CCCN3CCC[C@@H](CN1C(=O)CC(C)C)[C@@H]23
  hNpr1 antagonist: 1%
O=C([C@@H]1C[C@H](F)CN1C(=O)Nc1ccc(Br)cc1)N1CCCCC1
  hNpr1 antagonist: -13%
COCCOCc1nc(C2CCCCN2C(=O)NC(C)C)no1 (stereo unspecified)
  hNpr1 antagonist: 3%
O=C(c1ccc(Br)o1)N1c2ccccc2CC1c1nnc(C2CCOCC2)o1 (stereo unspecified)
  hNpr1 antagonist: -5%
Cc1noc(-c2cccc(OC3CN(C(=O)NC4CCCCC4)C3)c2)n1
  hNpr1 antagonist: -7%
c1cc2nnc(C3CCC3)n2nc1N1CCCC1
  hNpr1 antagonist: -1%
Cn1cnc(S(=O)(=O)N2CCC3(CC2)N(c2ccccc2)C(=O)CS3=O)c1 (stereo unspecified)
  hNpr1 antagonist: -2%
COc1ccc(Cl)cc1C(=O)N1CCN(c2cc(-c3cccs3)[nH]n2)CC1
  hNpr1 antagonist: ?
CCOc1cc(=O)n2c(c1C(=O)NC1CC1)CCCCC2
  hNpr1 antagonist: 2%
Cn1cccc1C(=O)N1CC2CC(C1)[C@H]1CCCC(=O)N1C2 (stereo partly specified)
  hNpr1 antagonist: 7%
Cc1ccccc1-c1nc(C2CC(=O)N(c3ccc(F)c(Cl)c3)C2)no1 (stereo unspecified)
  hNpr1 antagonist: -1%
CCC(CC)NC(=O)C1(CCO)CCN(Cc2ccccc2)C1 (stereo unspecified)
  hNpr1 antagonist: 5%
O=C(Cc1ccccc1Cl)N1CCN(c2cc(-c3cccs3)[nH]n2)CC1
  hNpr1 antagonist: -5%

# 3 structures already listed, sorted by heavy-atom count, ascending.
Cn1cccc1C(=O)N1CC2CC(C1)[C@H]1CCCC(=O)N1C2 (stereo partly specified)
  hNpr1 antagonist: 7%
Cc1ccccc1-c1nc(C2CC(=O)N(c3ccc(F)c(Cl)c3)C2)no1 (stereo unspecified)
  hNpr1 antagonist: -1%
Cn1cnc(S(=O)(=O)N2CCC3(CC2)N(c2ccccc2)C(=O)CS3=O)c1 (stereo unspecified)
  hNpr1 antagonist: -2%

# Reprinted at random: four records from the list
CS(=O)(=O)N1CCC(OC2CCN(C(=O)Nc3ccc(F)cc3F)CC2)CC1
  hNpr1 antagonist: 7%
O=C(c1ccc(Br)o1)N1c2ccccc2CC1c1nnc(C2CCOCC2)o1 (stereo unspecified)
  hNpr1 antagonist: -5%
Cc1noc(-c2cccc(OC3CN(C(=O)NC4CCCCC4)C3)c2)n1
  hNpr1 antagonist: -7%
CCOc1cc(=O)n2c(c1C(=O)NC1CC1)CCCCC2
  hNpr1 antagonist: 2%
